Compound activity (PubChem)
GALR2 agonist: agonists of human galanin receptor 2 (GALR2). AID 803. GALR2-expressing cells, agonist activation read-out. actives 0.48% (n = 140,000). O43603. activation, %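 (tested at 5 µM)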;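 active = above mean plus 3 SD of all compounds, about 5% in these data, not always enough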;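 also: 0% = vehicle buffer wells and 100% = reference agonist at full effect; tested in CHO reporter cells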
Target sequence (O43603 whole entry, looked up): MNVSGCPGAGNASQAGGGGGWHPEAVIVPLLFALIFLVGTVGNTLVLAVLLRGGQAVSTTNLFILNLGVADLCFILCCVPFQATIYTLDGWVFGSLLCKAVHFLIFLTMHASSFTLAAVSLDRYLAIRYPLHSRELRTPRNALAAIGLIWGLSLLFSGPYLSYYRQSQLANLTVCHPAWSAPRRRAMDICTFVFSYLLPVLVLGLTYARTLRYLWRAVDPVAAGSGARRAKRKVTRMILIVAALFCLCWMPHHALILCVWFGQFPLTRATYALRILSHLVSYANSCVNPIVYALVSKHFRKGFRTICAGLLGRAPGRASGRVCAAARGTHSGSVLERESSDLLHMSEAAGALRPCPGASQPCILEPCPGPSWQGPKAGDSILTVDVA
PKD1 inh: inhibitors of human PKD1 kinase | PKD1 kinase fluorescence polarization assay | inhibition, %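 (about 10 µM by stock and volumes)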 | actives 0.056% (n = 200,000) | Q15139;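 active = inhibition of 50% or more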;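 also: controls were vehicle for no effect and a reference inhibitor for full effect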
RGS16-Gao: modulates binding between human RGS16 and Galphao. O15492+P09471. binding response (% of control), % at 10 µM. actives 0.38% (n = 220,000). bead-based flow cytometry RGS16-Galphao binding, fluorescence; actives lie on both sides;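 active = below 25% or above 175%, edge rows of some plates excepted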;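 also: Galphao activated by GDP with aluminum fluoride before binding; 100% = wells without compound and 0% = beads without RGS; some results beyond the cut were filed as inactive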
Target sequence (O15492 whole entry, looked up): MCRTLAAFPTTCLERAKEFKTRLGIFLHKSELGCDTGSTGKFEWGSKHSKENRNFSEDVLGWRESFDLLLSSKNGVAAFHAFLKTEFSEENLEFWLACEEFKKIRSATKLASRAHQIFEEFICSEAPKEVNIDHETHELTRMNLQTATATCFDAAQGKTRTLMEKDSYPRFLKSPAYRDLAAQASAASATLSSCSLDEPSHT
Target sequence (P09471 whole entry, looked up): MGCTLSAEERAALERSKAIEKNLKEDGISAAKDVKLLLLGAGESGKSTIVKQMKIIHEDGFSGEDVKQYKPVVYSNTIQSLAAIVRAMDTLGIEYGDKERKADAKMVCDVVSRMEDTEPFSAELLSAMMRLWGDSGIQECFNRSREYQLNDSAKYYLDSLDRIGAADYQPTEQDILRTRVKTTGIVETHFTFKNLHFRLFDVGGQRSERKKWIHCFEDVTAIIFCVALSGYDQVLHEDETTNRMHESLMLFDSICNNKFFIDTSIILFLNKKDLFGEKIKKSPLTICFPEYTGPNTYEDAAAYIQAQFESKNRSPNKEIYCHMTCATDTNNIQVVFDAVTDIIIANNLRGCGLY
HSV augment: HSV replication enhancement | HSV replication augmentation in cells, fold increase | maximum fold increase | actives 0.005% (n = 220,000) | AID 1956;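 active = peak rise of 1.5-fold or more in the series; inconclusive = self-fluorescent or not available for retest; tested in PC3 cells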;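 also: first round at 10 µM; read as green reporter fluorescence; hits show the peak of a series up to 25 µM; 1 = signal of infected wells without compound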
Insulin prom inh: TRM-6 insulin promoter activity inhibition; TRM-6 cells (human fetal islet line), insulin promoter-eGFP reporter, imaging; reporter expression induced with tamoxifen; inhibition, % at 2 µM; actives 0.9% (n = 130,000);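 active = inhibition above the mean plus 3 SD, with well images judged a real hit on visual review, cut at about 60% in these data, passing the limit was not always enough; inconclusive = inhibition over the cutoff but images rejected on review; inactive = inhibition not above the cutoff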
Insulin prom inh cell count: further read-out of Insulin prom inh, marked with its call; normalized cell count, %; measured here: cell count, toxicity; reference of the scale not given here;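 cells exposed to compound for 48 h; stained nuclei by imaging scaled within each plate; lower means fewer cells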
HSV augment primary fold: also measured in HSV augment; calls as there; fold increase; compound at 10 µM; measured here: primary screen fold increase 10 uM; tested in PC3 cells;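 GFP signal in the first replicate; 1 = infected wells without compound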
Active calls of the source: *; i = inactive; ? = inconclusive; nt = not tested or not shown.

structure	RGS16-Gao	HSV augment primary fold	GALR2 agonist	Insulin prom inh cell count	Insulin prom inh	HSV augment	PKD1 inh
O=C(c1ccc(CSc2ccc(Cl)cc2)cc1)N1CCCC1	98	0.95	nt	nt	nt	i	4
NNC(=O)c1ccc(COc2cccc3ccccc23)o1	102	0.98	nt	nt	nt	i	nt
CC(C)CCNC(=O)CCc1nnc(Cc2c[nH]c3ccccc23)o1	112	0.99	nt	nt	nt	i	-3
COc1ccc(CN2CCOCCOCCOCCOCCOCC2)cc1	104	1.1	nt	nt	nt	i	nt
O=C(Cc1ccc(Cl)cc1)Nc1ccc(-c2cc3ccccc3oc2=O)c(Cl)c1	105	0.62	-0.1	nt	nt	i	1
CN1C2=CC=CC=CC2=[N+](C)C12C([N+](=O)[O-])=CC(=[N+]([O-])[O-])C=C2[N+](=O)[O-] (centres undefined)	99	0.87	nt	nt	nt	i	nt
Fc1ccc(Cn2c(-c3cscn3)nc3ccccc32)c(Cl)c1	105	1	-0.7	135	-10	i	-5
COc1ccc(OC)c(N(CC(N)=O)S(=O)(=O)c2ccc(OC)c(OC)c2)c1	115	1	-2.4	94	3	i	-7
COCCCNC(=O)C1CCCCN1S(=O)(=O)c1ccc(F)cc1 (centres undefined)	85	0.95	-1.3	84	35	i	-6
Cc1ccc(-c2c3c(nc4sc(C(N)=O)c(N)c24)CCCC3)o1	104	0.9	-1.3	107	-50	i	0
CC1=CCC(C(=O)O)(C(=O)N/N=C/c2cccs2)C(c2ccc([N+](=O)[O-])cc2)C1 (centres undefined)	99	0.96	-0.7	52	-14	i	-7
O=C(c1c[nH]c(C(=O)N2CCN(Cc3ccccc3)CC2)c1)C1CCCCC1	101	0.83	nt	121	-47	i	2
O=C(O)c1ccc2nc(-c3ccccc3)sc2c1	112	0.92	0.3	122	0	i	1
O=C(Nc1ccc2c(c1)OCCO2)NC1(C(F)(F)F)Oc2ccccc2O1	99	0.66	-2.3	nt	nt	i	4
Cc1ccc(CNCCNCCO)s1	102	0.99	nt	nt	nt	i	-5
O=C(NCCCN1CCOCC1)c1cnn2c(-c3ccccc3)cc(-c3ccccc3)nc12	102	nt	-0.2	nt	nt	nt	-19
CN1CC(c2ccccc2)C2(COc3ccccc3C2=O)C12C(=O)Nc1ccccc12 (centres undefined)	101	0.9	-0.4	121	-37	i	-4
CCc1nc2sc3c(c2c(=O)n1NC(=O)CCl)CCCC3	101	0.9	-2.2	138	71	i	2
O=C(NNC(=O)c1cccnc1)Nc1ccc([N+](=O)[O-])cc1	109	1.1	-1.9	nt	nt	i	1
CS(=O)(=O)N(CC(=O)Nc1ccc2c(c1)OCO2)Cc1ccccc1	104	0.8	-1.7	55	-350	i	1
COc1ccc(-c2c(C)nn3c(N4CCC(C(=O)NCCN(C)C)CC4)cc(C)nc23)cc1OC	104	0.72	-0.8	nt	nt	i	-11
O=C(CN1CCN(C(=O)c2cccc(F)c2)CC1)NC1CCCCC1	95	0.9	-1.9	nt	nt	i	-10
COc1cc(/C=C(\C#N)C(=O)NC(C)C)ccc1OCc1ccc(C(=O)O)cc1	88	1.1	nt	nt	nt	i	nt
Cc1ccc(-c2cc(C(F)F)n3ncc(C(=O)Nc4c(C)nn(Cc5ccccc5Cl)c4C)c3n2)cc1	107	0.99	-3.1	110	32	i	5
O=C1NC(=S)N/C1=C/c1ccc(-c2c(Br)cc([N+](=O)[O-])cc2Br)o1	112	nt	-1.6	127	52	nt	-16
C=CC[N+]1(CC(=O)NCc2ccc(NC(C)=O)cc2)CCOCC1	109	0.96	nt	nt	nt	i	nt
Cc1ccccc1CSc1ncnc2ccccc12	95	0.94	nt	nt	nt	i	-1
CC(C)(CN1CCN(c2ccccc2)CC1)NS(=O)(=O)c1ccccc1	99	1.3	nt	nt	nt	i	nt
CS/C(=N\S(=O)(=O)c1ccc(N)cc1)NS(=O)(=O)c1cccs1	96	1	5.5	nt	nt	i	-7
CCCCC1(Cc2cccc([N+](=O)[O-])c2)C(=O)N(c2ccccc2)N(c2ccccc2)C1=O	103	1.1	-3.2	132	39	i	-1
Cc1cc(C)cc(N2CN=c3s/c(=C\c4ccco4)c(=O)n3C2)c1	80	0.87	-0.1	148	4	i	-8
CCCN1CCCc2cc(CN)ccc21	100	0.91	-0.2	nt	nt	i	4
CC1CC(C(F)(F)C(F)(F)F)n2nc(C(=O)O)cc2N1 (centres undefined)	102	nt	-0.9	116	2	nt	-18
Cc1ccc(SC/C(O)=C(\C#N)c2nc3ccccc3s2)cc1	101	0.97	-1.6	105	67	i	5
Cc1ccc(-n2c(-c3nn(C)c(C)c3Cl)n[nH]c2=S)cc1	230	1	0.5	142	-39	i	1
COc1ccccc1Nc1nc(N)nc(-c2oc3ccccc3c2C)n1	94	0.7	1.1	100	3	i	-1
COc1ccc(CC(=O)Nc2nnc(C(C)C)s2)cc1OC	96	1	nt	110	-75	i	-2
COc1ccc(-c2noc(CCC(=O)Nc3ccc4c(c3)OCCO4)n2)cc1	103	0.98	-5.2	92	-35	i	-8
CCOC(=O)c1c(C#N)cnn1-c1ccc(C)cc1	105	0.9	-3.4	163	25	i	10
O=C1C(Cc2ccccc2O)NC(=S)N1c1ccccc1 (centres undefined)	103	1	nt	nt	nt	i	nt
O=C(Cn1nnc(-c2ccncc2)n1)Nc1ccc2c(c1)CCC2	100	1	-1.4	66	-3	i	-3
COCc1cc(C)nc(OCC(=O)N/N=C/c2ccc(-c3cccc([N+](=O)[O-])c3)o2)c1C#N	95	nt	-1.9	nt	nt	nt	1
COC(=O)[C@H](C)NC(=O)Nc1ccc(Oc2ccccc2)cc1	101	0.94	-1.0	nt	nt	i	-9
Cc1c(Br)cc(C(=O)NC2CCCCC2)c(C)c1C	107	0.89	-2.5	96	37	i	2
Cc1cc(C)cc(C(=O)NC(=S)Nc2ccc3c(c2)OCCO3)c1	40	1	0.7	nt	nt	i	-9
CN(C)c1ccc(C=NC(CO)C(O)c2ccc([N+](=O)[O-])cc2)cc1 (centres undefined)	101	0.82	nt	nt	nt	i	nt
COC(=O)/C=C/c1ccc(OC(=O)c2ccncc2)cc1	100	nt	-1.1	98	-33	nt	-11
Cc1ccnc(N=Cc2nc(-c3ccccc3Br)oc2O)c1	105	1.2	nt	72	-21	i	-1
CCOC(=O)N1CCC(NC(=O)c2cc3c(-c4ccccc4F)nn(C)c3s2)CC1	104	0.97	-1.2	nt	nt	i	-1
COc1ccc(C2=NOC(Cn3c(Cc4ccc(Cl)cc4)nc4c3c(=O)n(C)c(=O)n4C)C2)cc1 (centres undefined)	103	0.87	0.2	nt	nt	i	-2
CCN(CC)S(=O)(=O)c1ccc(NC(=O)C2c3ccccc3Oc3ccccc32)cc1	112	0.88	-1.3	104	-50	i	8
Cc1cccc(-n2c(SCC(=O)O)nc3sc4c(c3c2=O)CCC4)c1	80	1.1	nt	nt	nt	i	nt
CC(=O)c1cc(C)ccc1OC(=O)c1cccc2nc(C)oc12	101	0.96	0.0	127	54	i	-11
CCS(=O)(=O)N1Cc2ccccc2CC1C(=O)Nc1nnc(SCc2c(Cl)cccc2Cl)s1 (centres undefined)	96	0.95	-2.2	141	24	i	4
Cc1nc2sc(C(c3cccc(F)c3)N3CCN(C(=O)c4ccco4)CC3)c(O)n2n1 (centres undefined)	100	0.92	-1.9	58	-237	i	-15
Cn1c(=O)c2c(-c3ccccc3)n(C3CCCCC3)cc2n(C)c1=O	75	0.74	-0.8	nt	nt	i	-3
COCCCNC(NC(=O)c1ccc(C)cc1)C(Cl)(Cl)Cl (centres undefined)	100	nt	-2.9	nt	nt	nt	-1
COC(=O)CC1Sc2ccccc2NC1=O (centres undefined)	93	0.88	-2.2	nt	nt	i	-6
CC1=NNC(=O)C1CCC(=O)N/N=C\c1ccccc1[N+](=O)[O-] (centres undefined)	100	1.1	-1.1	nt	nt	i	2
Cc1cc(NC(=O)c2sc(Nc3ccc(F)cc3)nc2N)no1	103	0.83	nt	142	-50	i	1

Compound profiles, from the list above. Screens in order: RGS16-Gao, HSV augment primary fold, GALR2 agonist, Insulin prom inh cell count, Insulin prom inh, HSV augment, PKD1 inh
Cc1ccnc(N=Cc2nc(-c3ccccc3Br)oc2O)c1 is listed as 105, 1.2, nt, 72, -21, i, -1
Cc1c(Br)cc(C(=O)NC2CCCCC2)c(C)c1C is listed as 107, 0.89, -2.5, 96, 37, i, 2

(continued)
structure	RGS16-Gao	HSV augment primary fold	GALR2 agonist	Insulin prom inh cell count	Insulin prom inh	HSV augment	PKD1 inh
CN(C)C(=O)CSc1nnc(-c2cc(-c3cccs3)nc3ccccc23)o1	97	1	-0.3	nt	nt	i	-4
CC(O)CN1CC(O)=C(c2nc3ccccc3s2)C1=N (centres undefined)	96	1	nt	178	-7	i	2
CCN(Cc1cnn(C)c1)C(=O)c1ccc(OC2CCN(S(=O)(=O)N(C)C)CC2)cc1	114	0.94	nt	nt	nt	i	7
Cc1nn(-c2ccccc2)c(C)c1NC(=O)COc1ccc(C#N)cc1	103	0.92	0.1	nt	nt	i	4
O=C(NNC(=O)C1CCN(c2ncccn2)CC1)c1ccccc1	108	1	nt	nt	nt	i	3
Cc1cc(C)nc(NNC(=O)NC2CCCCC2)n1	-20*	0.93	nt	125	36	i	-2
O=C(OCC1OC(n2cnc3c(N(C(=O)c4ccccc4)C(=O)c4ccccc4)ncnc32)C(O)C1F)c1ccccc1 (centres undefined)	106	1.1	-3.2	130	-56	i	0
CCCCOCCCn1c(-c2ccco2)nc2nc3ccccc3nc21	102	nt	3.3	76	-56	?	5
COc1ccc(C(=O)NCc2n[nH]c(=S)n2-c2ccccc2)cc1OC	101	1.1	-1.6	137	-38	i	11
CC(=O)Nn1c(COc2ccccc2C)nc2ccccc2c1=O	108	0.82	-0.8	89	31	i	10
Cc1ccc(/C=N/n2cnc3sc4c(c3c2=O)CCCC4)o1	98	0.66	-3.5	nt	nt	i	5
Oc1c(N=NC(=S)Nc2ccccc2F)c2ccccc2n1Cc1cccc(Cl)c1	100	1	nt	nt	nt	i	0
CC(C)(C)c1ccccc1NC(=O)NC1CCN(Cc2c(F)cccc2Cl)CC1	103	0.99	nt	nt	nt	i	nt
CCCSC1=N/C(=C\c2ccc3c(c2)OCO3)C(=O)S1	104	1.1	-2.0	61	41	i	-1
CSc1ccccc1C(=O)C1CCCN(C(=O)NC(C)C)C1 (centres undefined)	98	1	nt	nt	nt	i	-8
Cc1ccccc1Oc1nnc(-c2cccs2)c2ccccc12	99	0.84	-0.1	nt	nt	i	-14
COc1ccc(OCc2nnc3n2N=C(c2ccc(C)cc2)CS3)cc1	98	0.97	-4.6	nt	nt	i	-4
Cn1c(=O)cc(OCC(=O)NCCC2=CCCCC2)c2ccccc21	99	0.95	nt	93	-7	i	-3
COc1ccccc1NC(=S)NC1CCCCCCCCCCC1	91	1.2	nt	nt	nt	i	nt
CCOC(=O)c1cc2occc2n1Cc1ccc(F)cc1	98	0.99	-2.1	nt	nt	i	-4
Cc1ccc(C(=O)NCC(=O)OCC(=O)NCCc2ccccc2)s1	103	1	nt	nt	nt	i	-5
O=[N+]([O-])c1ccccc1/C=C/C=N/n1c(-c2ccc(Cl)cc2)n[nH]c1=S	95	0.9	1.1	199	12	i	-7
COc1ccc(NC(=O)CSc2nccc(C)n2)cc1	116	1	-0.1	91	48	i	-8
CC(=O)c1cccc(NC(=O)CN(Cc2ccccc2)S(C)(=O)=O)c1	101	0.93	-2.4	112	-13	i	-6
COc1ccc(C(C(C(=O)c2ccco2)N2CCOCC2)N2CCOCC2)cc1 (centres undefined)	116	1.1	-0.9	15	-192	i	-9
COc1ccc(-c2ccc(OC(=O)NC3CCS(=O)(=O)C3)cc2)cc1 (centres undefined)	84	0.85	nt	nt	nt	i	nt
Cc1cccc(-c2nnc(SCC3CNC(=O)O3)n2-c2ccc(Cl)cc2)c1 (centres undefined)	109	1.1	0.1	87	-12	i	1
COC(=O)c1sc(N)c(C(=O)OC)c1COC(=O)C1CC(=O)N(Cc2ccco2)C1 (centres undefined)	89	1.2	0.2	73	-27	i	-9

Structures listed so far marked active in RGS16-Gao:
structure	RGS16-Gao	HSV augment primary fold	GALR2 agonist	HSV augment	PKD1 inh
Cc1cc(C)nc(NNC(=O)NC2CCCCC2)n1	-20*	0.93	nt	i	-2

Rows were taken by chance (roughly 1.3% active in at least one column).
